rRNA inh HTS = inhibits bacterial ribosomal RNA function over humanized ribosomes. E. coli WT GFP vs humanized-ribosome RFP mutants, fluorescence, 24 h; stronger effect = lower value; DMSO median 0, no signal -100. GFP signal change (wild-type ribosome), % (no concentration beside the values). hit rate 1.6% among 350,000;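 active means significant combined selectivity score with lowered wild-type GFP, culture density cut under 30%, mutant RFP and density less affected; inactive means any of these conditions unmet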; further: one replicate is shown; some compounds called inactive have numbers as strong as hits
Beta cell apopt = blocks beta cell apoptosis; hit rate 0.8% among 300,000; INS-1E cytokine-induced death, ATP luminescence, 48 h; percent of positive-control rescue, neutral wells zero; protection from apoptosis, % (concentration not given with the values);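 active means all replicates at 75% or more, or half of them and the mean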;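 further: 0% = cytokine-treated negative control wells and 100% = positive control rescue; higher means more ATP so stronger rescue from cytokine killing; wells of about 40 µL received 100 nL stock; the first replicate is given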
Calb FLC = affects C. albicans growth with fluconazole. C. albicans CaCi-2 (fluconazole-resistant clinical isolate) + fluconazole, Alamar Blue growth, 48 h. growth inhibition, % (test concentration not listed). hit rate 0.57% among 300,000;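 active means most replicates above 75%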;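 further: all wells also contain fluconazole at 8 µg/ml as a sub-toxic cotreatment; 0% = median of DMSO wells and 100% = median of geldanamycin control wells; wells of about 8 µL received 7.5 nL stock; the first replicate is given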
A1 inh = inhibitors of the anti-apoptotic protein A1, read as caspase activation; MEF A1-2A-BIM cells, Caspase-Glo 3/7 luminescence, 3 h; percent of clofoctol response, vehicle zero; caspase activation, % (test concentration not listed); hit rate 0.066% among 330,000;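 active means over half of replicate activation scores above 10%, or exactly half above 10 with the replicate mean above 10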;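 further: wells of about 30 µL received 50 nL stock; many hits fall short of the cut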
T cruzi repl = T. cruzi replication inhibition; T. cruzi beta-gal in NIH3T3, luminescence, 90 h; hit rate 1.4% among 300,000; inhibition, % (concentration not given with the values);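 active means mean inhibition across valid replicates above about 55%, limit read from the data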;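 further: signal also drops with host cell toxicity which is not excluded here; 0% = plate median of DMSO wells and 100% = zero luminescence signal; higher percent means less beta-gal luminescence so fewer parasites; stock transfer was 50 nL into about 50 µL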
ALR inh = blocks human ALR sulfhydryl oxidase activity; P55789; purified ALR, DTT oxidation, H2O2 HRP-luminol luminescence; inhibition, % (test concentration not listed); hit rate 3.8% among 290,000;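 active means mean and each replicate at 75% or more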;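 further: stock transfer was 7.5 nL into about 7.5 µL; 0% = neutral wells and 100% = wells with inactivated enzyme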
Beta2AR agonist = activates human beta-2 adrenergic receptor causing internalization; hit rate 0.43% among 340,000; P07550; AID 504454; Am2.2-beta2AR cells, FAP receptor internalization, flow cytometry; reference of the scale not given here; response, % (test concentration not listed);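 active means response above a set limit, near 3 SD of response in nonfluorescent compounds, cut at about 42% in these data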;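 further: stock transfer was 100 nL into about 11 µL; a reference agonist was the positive control; negative values mostly stem from fluorescent compounds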
LANA-H2A inh = blocks KSHV LANA binding to histone H2A/H2B; Q9QR71; cell-free LANA-H2A/H2B peptide, fluorescence polarization; inhibition, % (concentration not given with the values); hit rate 0.6% among 320,000; AID 2629; in the data active means inhibition mostly above about 10%, no sharp cut-off; inactive means mostly below about 6.7%;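 further: stock transfer was 7.5 nL into about 10 µL; 0% = median of vehicle wells and 100% = median of positive control wells; one replicate is shown; the record names a cut of 25% in any replicate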
Target sequence (Q9QR71 whole entry, looked up): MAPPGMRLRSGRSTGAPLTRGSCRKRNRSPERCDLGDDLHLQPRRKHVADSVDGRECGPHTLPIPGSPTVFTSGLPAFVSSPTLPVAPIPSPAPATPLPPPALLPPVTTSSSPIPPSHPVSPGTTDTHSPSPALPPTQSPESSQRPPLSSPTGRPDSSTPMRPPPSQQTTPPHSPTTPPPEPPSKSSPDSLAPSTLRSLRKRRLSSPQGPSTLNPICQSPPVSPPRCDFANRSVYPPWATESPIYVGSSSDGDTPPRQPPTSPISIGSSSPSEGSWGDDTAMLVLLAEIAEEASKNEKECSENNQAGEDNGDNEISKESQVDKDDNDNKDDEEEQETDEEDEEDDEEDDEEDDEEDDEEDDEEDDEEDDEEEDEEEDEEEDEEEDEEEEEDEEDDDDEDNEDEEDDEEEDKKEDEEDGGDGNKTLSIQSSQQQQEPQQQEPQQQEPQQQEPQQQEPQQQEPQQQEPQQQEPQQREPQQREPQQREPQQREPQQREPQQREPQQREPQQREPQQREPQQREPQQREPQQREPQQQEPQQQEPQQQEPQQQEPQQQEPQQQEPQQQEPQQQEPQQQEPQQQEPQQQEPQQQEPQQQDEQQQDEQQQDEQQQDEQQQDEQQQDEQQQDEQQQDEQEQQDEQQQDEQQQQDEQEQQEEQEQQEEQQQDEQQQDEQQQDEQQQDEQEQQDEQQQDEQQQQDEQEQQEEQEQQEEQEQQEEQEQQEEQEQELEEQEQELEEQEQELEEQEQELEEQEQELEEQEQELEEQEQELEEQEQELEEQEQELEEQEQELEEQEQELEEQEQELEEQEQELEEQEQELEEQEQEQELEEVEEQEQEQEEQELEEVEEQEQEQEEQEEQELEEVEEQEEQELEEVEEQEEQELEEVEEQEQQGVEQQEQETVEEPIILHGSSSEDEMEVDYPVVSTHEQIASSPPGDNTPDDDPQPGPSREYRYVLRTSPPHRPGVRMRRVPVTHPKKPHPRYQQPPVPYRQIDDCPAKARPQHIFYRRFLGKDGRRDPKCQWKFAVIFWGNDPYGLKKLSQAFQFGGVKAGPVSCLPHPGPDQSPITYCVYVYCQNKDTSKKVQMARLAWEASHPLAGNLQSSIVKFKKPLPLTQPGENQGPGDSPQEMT
rRNA inh HTS OD600 = recorded beside rRNA inh HTS, whose call it bears; OD600 change, %; measured here: OD600 growth;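 optical density of the mix in the first replicate; 0 = DMSO median and -100 = no signal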
rRNA inh HTS RFP = further read-out of rRNA inh HTS, marked with its call; RFP signal change, %; measured here: RFP humanized mutant strains;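 first replicate; 0 = DMSO median and -100 = no signal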
An asterisk follows results filed as active; / = no result given. An excerpt (hit frequency here may not be typical).

SMILES | rRNA inh HTS | rRNA inh HTS OD600 | rRNA inh HTS RFP | Beta cell apopt | Calb FLC | A1 inh | T cruzi repl | ALR inh | Beta2AR agonist | LANA-H2A inh
Cc1onc(-c2ccccc2)c1C(=O)Nc1nc2c(s1)C(=O)CC(C)(C)C2 | / | / | / | / | 3 | -0.4 | 18 | / | -1 | 0.2
COc1ccc(CN2C(=O)CCC2(C)C(=O)NC2CCCC2)c(OC)c1 (configuration not stated) | 9 | 6 | -4.0 | 1 | 0 | 1.1 | -4 | / | 7 | -2.5
Cc1nn(-c2ccccc2)c(Cl)c1C(=O)Nc1ccccc1 | / | / | / | -4 | -3 | -0.1 | 22 | -8 | -3 | 4.1
Cc1ccc(-c2nnn(CC(=O)N(c3ccccc3)C(C(=O)NCC3CCCO3)c3ccc(Cl)cc3)n2)cc1 (configuration not stated) | / | / | / | 1 | 11 | 0.2 | 15 | -5 | 1 | -0.1
NC(=O)c1ccc(NC(=O)COC(=O)CCCN2C(=O)c3cccc4cccc(c34)C2=O)cc1 | 12 | 2 | -2.0 | -6 | 0 | -0.5 | 6 | -3 | -10 | 5.9
O=C(NCN1CCN(c2ccccc2)CC1)c1cnccn1 | -1 | 0 | -3.5 | -3 | 9 | 0.8 | -15 | 98* | -2 | 2.3
O=C(Nc1ccccc1)c1ccccc1CC[N+](=O)[O-] | / | / | / | -1 | -3 | 1.2 | -1 | 8 | -5 | -0.6
CC(=O)c1ccc(OCC(O)CN2CCN(CC(O)COc3ccc(C(C)=O)cc3)CC2)cc1 (configuration not stated) | / | / | / | -1 | -2 | -0.3 | -11 | -9 | -8 | -1.9
O=C(CC1SC(N2CCOCC2)=NC1=O)Nc1ccc(F)cc1 (configuration not stated) | 6 | 4 | -5.9 | -4 | / | -1.3 | / | -3 | 0 | -1.8
Cc1ccccc1-c1cc(C(=O)NCC2CC2)nn1CC1CC(c2cccc([N+](=O)[O-])c2)=NO1 (configuration not stated) | 15 | 15 | 1.4 | -5 | / | 0.3 | / | -4 | 0 | 1.1
CCSc1nc2ccccc2n1CC(=O)N1CCOCC1 | 7 | 9 | -0.2 | -11 | -9 | -0.9 | -22 | -6 | 1 | 3.4
CCOc1ccc(CNc2ccc3c(c2)nc(C)n3C)cc1 | / | / | / | / | / | -2.9 | / | 96* | 2 | -4.6
COc1ccc(C(=O)NCc2c(C)nn(Cc3ccccc3)c2C)cc1S(=O)(=O)N1CCOCC1 | 0 | 12 | 3.7 | -2 | / | -0.9 | / | / | 0 | -2.9
O=C(O)CSCCOc1ccc(OCCSCC(=O)O)cc1 | 16 | 6 | 0.5 | / | -2 | 0.5 | -3 | -3 | -5 | -2.8
O=C(NCc1ccc2c(c1)OCO2)c1ccc(CSCc2cccc(Cl)c2)o1 | -26 | -32 | -0.3 | -4 | -2 | -0.4 | 7 | 3 | -7 | 5.0
Cc1oc(-c2cccc(F)c2)nc1CN1CCCCC1CCn1cccn1 (configuration not stated) | 14 | 6 | 6.7 | -1 | -18 | -0.3 | 37 | -2 | -6 | 5.7
Cc1cc(/C=C\c2nc(O)c([N+](=O)[O-])c(=O)[nH]2)c(C)n1-c1ccccc1 | 14 | 10 | 4.9 | -2 | 16 | -0.2 | -8 | 24 | -6 | 9.7
CCOc1ccc2nc(NC(=O)C3=NN(c4ccccc4)C(=O)CC3)sc2c1 | 9 | 9 | -1.3 | 4 | -26 | 0.6 | 2 | -5 | -2 | 1.3
COc1cccc(C(=O)Nc2cc3c(cc2Br)OCCCO3)c1 | -27 | -32 | -16 | -4 | 25 | 0.4 | 11 | -2 | 2 | 0.8
CC(=O)c1ccc(NC(=O)[C@@H]2CCCN2C(=O)OC(C)(C)C)cc1 | 16 | 18 | 0.8 | -4 | 0 | -0.8 | -2 | 4 | 5 | 1.2
Cc1ccc(SCC(=O)OCC(=O)N(C)C2CCS(=O)(=O)C2)cc1C (configuration not stated) | 4 | 4 | -2.1 | -4 | / | -1.5 | / | / | 5 | -3.7
COC(=O)c1sccc1NC(=O)Nc1cc(C)ccc1C | 21 | 9 | 4.8 | -6 | 7 | -0.5 | -13 | 6 | 1 | 2.9
Cc1ccc(S(=O)(=O)N2CCN(c3cnn(C)c(=O)c3Cl)CC2)cc1 | 3 | 6 | 3.3 | -1 | -7 | 0.8 | -10 | -5 | 2 | -1.4
N=c1sccn1CC(=O)N1N=C(c2ccc(Cl)cc2)CC1c1ccco1 (configuration not stated) | -5 | -10 | -0.3 | 0 | -4 | -0.2 | 0 | -26 | 8 | 1.6
COC(=O)N1N=C(c2ccc(Br)cc2)CC1(O)C(F)(F)F (configuration not stated) | / | / | / | 4 | -2 | -3.1 | -4 | -4 | 2 | -1.4
COC(=O)CCC(C)N1CCC(Oc2ccc(C(=O)NCc3ccccn3)cc2)CC1 (configuration not stated) | 8 | 8 | 0.8 | / | -5 | / | -3 | / | -1 | /
CCOC(=O)N1CCN(c2ccc(C(=O)c3ccccc3)cc2F)CC1 | -45 | -69 | -12 | 0 | 0 | -1.1 | 8 | -3 | 3 | -2.0
Cc1cc(COc2ccccc2OCc2cc(C)no2)on1 | / | / | / | -3 | -3 | 0.9 | -12 | -43 | -9 | 0.9
CCSc1ccccc1C(=O)n1nnc2ccccc21 | -6 | 4 | 1.6 | -3 | / | 1.2 | / | 46 | 12 | -2.4
O=C(c1noc2c1CCc1ccccc1-2)N1CCCc2ccccc21 | / | / | / | 6 | 11 | -0.5 | 20 | -5 | -16 | 3.3
CCOC(=O)c1[nH]c(C)c(C(=O)NCCCOC(C)C)c1C | 6 | 4 | -4.9 | 2 | 6 | 1.6 | 2 | -2 | 1 | -3.4
Cc1cccc(COCC(CC(C)C)N2CCN(C(=O)c3ccc(C(C)(C)C)cc3)CCC2=O)c1 (configuration not stated) | 2 | -9 | 6.8 | 3 | 2 | -0.2 | 7 | / | 18 | 1.2
O=C(/C=C/c1ccc([N+](=O)[O-])s1)N1CCCC1 | 1 | 3 | 2.6 | -1 | 8 | -0.6 | 69* | / | -1 | -2.1
COc1ccccc1C(=O)N/C(=C\c1cn(C)c2ccccc12)C(=O)N1CCOCC1 | 3 | -2 | 2.5 | -1 | 34 | 0.7 | 13 | 27 | 6 | -0.6
CC(C)(C(N)=O)c1ccccc1 | 4 | 10 | -2.0 | -5 | -3 | 0.4 | 2 | -5 | -1 | -0.5
Cc1c(NC(=O)Nc2ccccc2[N+](=O)[O-])c(=O)n(-c2ccccc2)n1C | 7 | 7 | -1.7 | -1 | 5 | -0.6 | 9 | 6 | 4 | 7.1
CCOc1ccccc1NC(=O)COC(=O)COc1c(Cl)cc(Cl)c2ccc(C)nc12 | 2 | 5 | -1.2 | -5 | 22 | 0.0 | -12 | -1 | 10 | -0.3
Cc1cnn(Cc2cccnc2)c1N | 14 | 0 | -0.4 | -6 | -4 | 0.8 | -5 | 5 | 6 | -0.8
CCOC(=O)c1oc2nc(CC(C)C)c3c(c2c1N)CCCC3 | -9 | -2 | -2.3 | 0 | 12 | 0.8 | 14 | -4 | 1 | -4.9
CC1CCc2c(C(=O)Nc3cccc(-c4nn[nH]n4)c3)csc2C1 (configuration not stated) | -28 | -34 | -6.9 | / | 3 | -0.6 | -1 | 51 | -22 | -22
O=C(c1ccccc1Br)N1CCCC(c2nc(-c3cccs3)no2)C1 (configuration not stated) | -12 | -7 | -1.4 | 11 | 0 | 0.8 | 7 | -5 | -3 | 12
Cc1ccc(NC(=O)CSc2nc(N)cc(=O)[nH]2)cc1Cl | 3 | -1 | 0.3 | -6 | -7 | 0.8 | -10 | 95* | -3 | 2.8
Nc1nc(-c2ccc([N+](=O)[O-])cc2)cs1 | / | / | / | / | 4 | -4.4 | -2 | 27 | -7 | 0.3
COc1ccc(-c2cc(-c3n[nH]c(=S)n3-c3ccccc3Cl)[nH]n2)cc1 | -14 | -16 | 1.5 | 6 | 5 | -0.3 | -13 | 45 | -9 | -0.6
CC(C)(C)c1ccc(C(=O)NNC(=O)Cc2ccccc2)cc1 | -8 | -19 | -2.8 | -3 | 5 | 1.1 | -8 | -2 | -1 | -1.7
Cn1c(=O)c2c(nc(N3CCCCCC3)n2CC(O)COc2ccc(Cl)cc2)n(C)c1=O (configuration not stated) | / | / | / | 4 | -4 | -0.1 | 22 | -4 | 0 | -2.3
COCc1c(C(=O)N2CCN(c3ncccn3)CC2)oc2ccccc12 | -2 | -9 | 3.3 | -7 | / | 0.3 | / | / | -5 | 3.1
CC1(c2ccccc2)NC(=O)N(CCOc2ccccc2)C1=O (configuration not stated) | / | / | / | -7 | 21 | 0.6 | -3 | / | -3 | -1.3
CCCCOC(=O)/C(=C/C=C/c1ccccc1)NC(=O)c1ccccc1 | -8 | -15 | -4.2 | / | -9 | 0.6 | 31 | -6 | 0 | 0.1
Cc1cccc(-c2nnc(SCc3cc(=O)[nH]c4ccccc34)n2C)c1 | / | / | / | -14 | 8 | -0.4 | -9 | -11 | 5 | -3.7
CCOC(=O)C1=C(C)NC(C)=C(C(=O)OCC)C1c1cccs1 | / | / | / | -12 | 4 | -0.5 | 18 | -3 | -4 | -0.9
Nc1ccc(C(=O)N/N=C/c2cn(Cc3ccccc3)c3ccccc23)cc1 | -4 | -8 | 1.2 | 2 | -14 | -0.2 | 1 | -1 | 15 | -1.4

By substructure: the entries above with a Cl atom
SMILES | rRNA inh HTS | rRNA inh HTS OD600 | rRNA inh HTS RFP | Beta cell apopt | Calb FLC | A1 inh | T cruzi repl | ALR inh | Beta2AR agonist | LANA-H2A inh
Cc1nn(-c2ccccc2)c(Cl)c1C(=O)Nc1ccccc1 | / | / | / | -4 | -3 | -0.1 | 22 | -8 | -3 | 4.1
Cc1ccc(-c2nnn(CC(=O)N(c3ccccc3)C(C(=O)NCC3CCCO3)c3ccc(Cl)cc3)n2)cc1 (configuration not stated) | / | / | / | 1 | 11 | 0.2 | 15 | -5 | 1 | -0.1
O=C(NCc1ccc2c(c1)OCO2)c1ccc(CSCc2cccc(Cl)c2)o1 | -26 | -32 | -0.3 | -4 | -2 | -0.4 | 7 | 3 | -7 | 5.0
Cc1ccc(S(=O)(=O)N2CCN(c3cnn(C)c(=O)c3Cl)CC2)cc1 | 3 | 6 | 3.3 | -1 | -7 | 0.8 | -10 | -5 | 2 | -1.4
N=c1sccn1CC(=O)N1N=C(c2ccc(Cl)cc2)CC1c1ccco1 (configuration not stated) | -5 | -10 | -0.3 | 0 | -4 | -0.2 | 0 | -26 | 8 | 1.6
CCOc1ccccc1NC(=O)COC(=O)COc1c(Cl)cc(Cl)c2ccc(C)nc12 | 2 | 5 | -1.2 | -5 | 22 | 0.0 | -12 | -1 | 10 | -0.3
Cc1ccc(NC(=O)CSc2nc(N)cc(=O)[nH]2)cc1Cl | 3 | -1 | 0.3 | -6 | -7 | 0.8 | -10 | 95* | -3 | 2.8
COc1ccc(-c2cc(-c3n[nH]c(=S)n3-c3ccccc3Cl)[nH]n2)cc1 | -14 | -16 | 1.5 | 6 | 5 | -0.3 | -13 | 45 | -9 | -0.6
Cn1c(=O)c2c(nc(N3CCCCCC3)n2CC(O)COc2ccc(Cl)cc2)n(C)c1=O (configuration not stated) | / | / | / | 4 | -4 | -0.1 | 22 | -4 | 0 | -2.3

Screens as filed in PubChem.
